Screening data from PubChem BioAssay.
HSD17B inh: blocks hydroxysteroid 17-beta dehydrogenase activity. recombinant HSD17B10, NADH fluorescence kinetic; many of its hits are not listed in these tables. AID 893. hit rate 7.6% among 75,000. Q99714. Potency, µM (titrated, usually from 57.1 µM), for inactives: at the top dose activity change, negative = inhibition, most hits filed as inhibitors; active = well fitted inhibition curve with a large enough effect; inconclusive = small, poorly fitted or top-dose-only effect; inactive = no such curve, though single readings can be large or run the other way;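 also: the protocol describes HADH2 (HSD17B10) and not the HSD17B4 of the title; nearly all actives have a fitted effect of over 70% in size; most hits overshoot -100% by far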
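Activity followed as NADH fluorescence increase (ex 360, em 450 nm) every 30 seconds for 4 min, using final 90 uM beta-hydroxybutyryl CoA and 1 mM NAD+. Recombinant His-tagged enzyme, 20 nM, pH 9.0 Tris buffer, 15 min compound preincubation.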
An asterisk follows results filed as active; ? = inconclusive; [ ] = dose if it differs, or a comment. % is scaled to controls: 0 for no effect and ±100 for the full control effect; potency is read from the fitted curve at half-maximal effect.

Preview:
nr	SMILES	HSD17B inh
1	CC(C)COc1cccc(C(=O)Nc2ccc(S(=O)(=O)N3CCOCC3)cc2)c1	?
2	CCSc1nnc(NC(=O)CSc2nc3c(c(=O)n2C)SC(C)C3)s1 (stereo not drawn)	-3.2%
3	COc1ccc(OC)c(C2C(C(=O)c3cccs3)=C(O)C(=O)N2CCN(C)C)c1 (stereo not drawn)	-11.3%
4	Cc1c(C(=O)Nc2nnc(C(F)(F)F)s2)oc2ccccc12	0.9%
5	Cc1ccc(CNC(=O)C2c3ccccc3C(=O)N(C)C2c2c[nH]c3ccccc23)o1 (stereo not drawn)	-27.9%
6	C=C1C(=O)OC2C[C@@]3(C)CCCC(C)C3=CC12 (stereo partly drawn)	-1.8%
7	COCC(=O)N1CCC[C@@]2(CCN(Cc3ccc(C#N)cc3)C2)C1	0.4%
8	COC(=O)c1ccc(Oc2nc3c(c(=O)n(C)c(=O)n3C)n2CCC(C)C)cc1	-14.0%
9	Oc1cc(O)c2c(c1)OC(c1ccc(O)c(O)c1)C(O)C2 (stereo not drawn)	-12.6%
10	CCOc1ccc(N(CC(=O)NC2CCCCCC2)S(=O)(=O)c2c(C)noc2C)cc1	0.5%
11	O=C(COC(=O)CCOc1ccccc1)Nc1ccc(Cl)cn1	-16.6%
12	COc1cccc(/C=N/n2cncn2)c1OCC#N	25.1µM*
13	CC(C)[C@H](NC(=O)NC1CCCC1)C(=O)O	8.9%
14	CCOc1cc(C(=O)N2CCN(c3ccc(C(C)=O)cc3)CC2)cc(OCC)c1OCC	-5.8%
15	COCCOc1ccc(C(F)(F)F)cc1Nc1nc2ccccc2o1	25.1µM*
16	Cc1cc(NC(=O)COC(=O)c2cc3c(s2)CCC(C)C3)no1 (stereo not drawn)	-12.6%
17	CCC/C=C(\CCC)C(NC(=O)c1ccc(C(F)(F)F)cc1)c1ccc(C(F)(F)F)cc1 (stereo not drawn)	-1.9%
18	Cc1ccc2c(c1)N(CC(=O)N1CCCCC1c1cccnc1)C(=O)CO2 (stereo not drawn)	8.5%
19	CSc1ccccc1NS(=O)(=O)c1ccc2c(c1)OCCO2	11.0%
20	Cc1ccc2nc(N/N=C\c3cccc(C)n3)cc(C)c2c1	-6.9%[11.4 µM]
21	O=C(NCCCO)c1ccc2[nH]c3ccccc3c2c1	31.6µM*

The listing (from the top)
nr	SMILES	HSD17B inh
1	CC(C)COc1cccc(C(=O)Nc2ccc(S(=O)(=O)N3CCOCC3)cc2)c1	?
2	CCSc1nnc(NC(=O)CSc2nc3c(c(=O)n2C)SC(C)C3)s1 (stereo not drawn)	-3.2%
3	COc1ccc(OC)c(C2C(C(=O)c3cccs3)=C(O)C(=O)N2CCN(C)C)c1 (stereo not drawn)	-11.3%
4	Cc1c(C(=O)Nc2nnc(C(F)(F)F)s2)oc2ccccc12	0.9%
5	Cc1ccc(CNC(=O)C2c3ccccc3C(=O)N(C)C2c2c[nH]c3ccccc23)o1 (stereo not drawn)	-27.9%
6	C=C1C(=O)OC2C[C@@]3(C)CCCC(C)C3=CC12 (stereo partly drawn)	-1.8%
7	COCC(=O)N1CCC[C@@]2(CCN(Cc3ccc(C#N)cc3)C2)C1	0.4%
8	COC(=O)c1ccc(Oc2nc3c(c(=O)n(C)c(=O)n3C)n2CCC(C)C)cc1	-14.0%
9	Oc1cc(O)c2c(c1)OC(c1ccc(O)c(O)c1)C(O)C2 (stereo not drawn)	-12.6%
10	CCOc1ccc(N(CC(=O)NC2CCCCCC2)S(=O)(=O)c2c(C)noc2C)cc1	0.5%
11	O=C(COC(=O)CCOc1ccccc1)Nc1ccc(Cl)cn1	-16.6%
12	COc1cccc(/C=N/n2cncn2)c1OCC#N	25.1µM*
13	CC(C)[C@H](NC(=O)NC1CCCC1)C(=O)O	8.9%
14	CCOc1cc(C(=O)N2CCN(c3ccc(C(C)=O)cc3)CC2)cc(OCC)c1OCC	-5.8%
15	COCCOc1ccc(C(F)(F)F)cc1Nc1nc2ccccc2o1	25.1µM*
16	Cc1cc(NC(=O)COC(=O)c2cc3c(s2)CCC(C)C3)no1 (stereo not drawn)	-12.6%
17	CCC/C=C(\CCC)C(NC(=O)c1ccc(C(F)(F)F)cc1)c1ccc(C(F)(F)F)cc1 (stereo not drawn)	-1.9%
18	Cc1ccc2c(c1)N(CC(=O)N1CCCCC1c1cccnc1)C(=O)CO2 (stereo not drawn)	8.5%
19	CSc1ccccc1NS(=O)(=O)c1ccc2c(c1)OCCO2	11.0%
20	Cc1ccc2nc(N/N=C\c3cccc(C)n3)cc(C)c2c1	-6.9%[11.4 µM]
21	O=C(NCCCO)c1ccc2[nH]c3ccccc3c2c1	31.6µM*
22	COc1cc2c(=O)n(Cc3ccco3)c(=O)n(CC(=O)c3ccc(Br)cc3)c2cc1OC	-4.9%
23	CN=C1SC(CC(=O)Nc2cc(Cl)ccc2Cl)C(=O)N1C (stereo not drawn)	1.2%
24	COC(=O)c1c(NC(=O)C2CC2)sc2c1CCCC2	?
25	CC(C)[C@@H]1[C@H]2CC[C@H](C2)[C@H]1N	-8.2%
26	COc1ccc(CC(NC(C)=O)C(=O)NC2CCN(S(=O)(=O)c3ccccc3)CC2)cc1OC (stereo not drawn)	6.7%
27	O=C(c1ccccc1NS(=O)(=O)c1ccc(Br)s1)N1CCCC1	-15.0%
28	Cc1nn(C(C)C(=O)O)c(=O)c2c1sc1ccccc12 (stereo not drawn)	-14.3%
29	O=C1c2ccccc2CC[C@H]1CNCCc1ccc(O)cc1	-21.0%
30	CN1C(=O)N(CN2CCCCC2)C2C1N(C)C(=O)N2CN1CCCCC1 (stereo not drawn)	12.4%
31	CCOC(=O)c1c(C)[nH]c2ccc3c(c12)CN1CCc2cc(OC)ccc2[C@@H]1O3	-8.1%
32	CCC(=O)n1nc(NCc2ccccc2OC)nc1NCc1ccccc1OC	-9.7%
33	CCOc1ccccc1NC1=NCC(=O)N1Cc1ccc(F)cc1	-4.8%
34	N#Cc1c(F)cccc1N1CCOCC1	31.6µM*
35	CCCc1cc(C(=O)Nc2cc(OC)c(Cl)cc2OC)no1	149.2%[activator]
36	O=C(CSc1nc2ccsc2c(=O)n1Cc1ccccc1)NCc1ccco1	-6.2%
37	CCCCn1nnc(NC(=O)CC23CC4CC(CC(C4)C2)C3)n1	6.2%
38	COc1cc2c(=O)n(Cc3ccccc3)c(=O)n(CC(=O)NCC3CCCO3)c2cc1OC (stereo not drawn)	25.1µM*
39	Clc1ccc(CSc2nnc([C@@H]3CCCN3)o2)cc1	0.2%
40	CCOC(=O)C1=C(C)Nc2ncnn2C1c1ccc2c(c1)OCO2 (stereo not drawn)	-1.3%
41	C=CC1=C(C)C2=NC1=CC1=NC(=CC3=NC(=CC4=NC(=C2)C(C)=C4CCC(=O)O)C(CCC(=O)O)=C3C)C(C=C)=C1C.[Zn]	2µM*
42	CC1CCN(S(=O)(=O)c2cc(Cl)ccc2Br)CC1	-7.9%
43	COCCn1c(SCC(=O)N2CCCCC2)nc2ccccc2c1=O	-5.0%
44	Oc1cc2ccccc2cc1-c1n[nH]c(=S)o1	25.1µM*
45	COc1ccccc1-c1cc(C(F)(F)F)nc(S(=O)(=O)CCCC(=O)N2CCCCC2C)n1 (stereo not drawn)	3.5%
46	CCN(CC)CCN1c2ccccc2Sc2ccc3ccccc3c21	-10.7%[11.4 µM]
47	COC(=O)c1c(-c2ccc(F)cc2)csc1NC(=O)c1ccco1	31.6µM*
48	CCn1c(Cn2nnc(-c3ccccc3)n2)nnc1SCc1ccc(Cl)c(Cl)c1	14.3%
49	Cc1ccc(OCCSc2nnc(NC(=O)c3ccco3)s2)cc1	-8.2%
50	COc1ccc(NC(=O)c2c(-c3ccccc3Cl)noc2C)c(OC)c1	-6.5%
51	CCOC(=O)N1CCN(C(=O)c2cc3c(=O)n(C)c4ccccc4c3n2C)CC1	-15.9%
52	CCN(Cc1ccccc1)S(=O)(=O)c1nc2nc(C)c(C)c(C)n2n1	1.2%
53	O=C(Cn1cc(C(=O)c2cccs2)c2ccccc21)NCc1ccc2c(c1)OCO2	?

Two entries drawn at random from those above:
nr	SMILES	HSD17B inh
45	COc1ccccc1-c1cc(C(F)(F)F)nc(S(=O)(=O)CCCC(=O)N2CCCCC2C)n1 (stereo not drawn)	3.5%
26	COc1ccc(CC(NC(C)=O)C(=O)NC2CCN(S(=O)(=O)c3ccccc3)CC2)cc1OC (stereo not drawn)	6.7%

Only part of the results is shown (hit frequency here may not be typical).
